GALR2 ag: GALR2 (human) receptor agonism; O43603; AID 803; activation, %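 (tested at 5 µM)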; GALR2-expressing cells, agonist activation read-out; 140,000 tested, 0.48% active;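 active = above mean plus 3 SD of all compounds, about 5% in these data, not always enough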;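 also: 0% = vehicle buffer wells and 100% = reference agonist at full effect; tested in CHO reporter cells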
Insulin prom inh: TRM-6 insulin promoter activity inhibition; TRM-6 cells (human fetal islet line), insulin promoter-eGFP reporter, imaging; reporter expression induced with tamoxifen; 130,000 tested, 0.9% active; AID 1273; inhibition, % at 2 µM;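 active = inhibition above the mean plus 3 SD, with well images judged a real hit on visual review, cut at about 60% in these data, passing the limit was not always enough; inconclusive = inhibition over the cutoff but images rejected on review; inactive = inhibition not above the cutoff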
HSV replic up: increases HSV replication in cells; 220,000 tested, 0.005% active; AID 1956; HSV replication augmentation in cells, fold increase; maximum fold increase;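 active = peak rise of 1.5-fold or more in the series; inconclusive = self-fluorescent or not available for retest; tested in PC3 cells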;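 also: first round at 10 µM; read as green reporter fluorescence; hits show the peak of a series up to 25 µM; 1 = signal of infected wells without compound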
PKD1 inh: blocks activity of human protein kinase D1 | Q15139 | PKD1 kinase fluorescence polarization assay | inhibition, %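 (about 10 µM by stock and volumes)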 | 200,000 tested, 0.056% active | AID 797;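 active = inhibition of 50% or more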;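 also: controls were vehicle for no effect and a reference inhibitor for full effect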
Target sequence (Q15139 whole entry, looked up): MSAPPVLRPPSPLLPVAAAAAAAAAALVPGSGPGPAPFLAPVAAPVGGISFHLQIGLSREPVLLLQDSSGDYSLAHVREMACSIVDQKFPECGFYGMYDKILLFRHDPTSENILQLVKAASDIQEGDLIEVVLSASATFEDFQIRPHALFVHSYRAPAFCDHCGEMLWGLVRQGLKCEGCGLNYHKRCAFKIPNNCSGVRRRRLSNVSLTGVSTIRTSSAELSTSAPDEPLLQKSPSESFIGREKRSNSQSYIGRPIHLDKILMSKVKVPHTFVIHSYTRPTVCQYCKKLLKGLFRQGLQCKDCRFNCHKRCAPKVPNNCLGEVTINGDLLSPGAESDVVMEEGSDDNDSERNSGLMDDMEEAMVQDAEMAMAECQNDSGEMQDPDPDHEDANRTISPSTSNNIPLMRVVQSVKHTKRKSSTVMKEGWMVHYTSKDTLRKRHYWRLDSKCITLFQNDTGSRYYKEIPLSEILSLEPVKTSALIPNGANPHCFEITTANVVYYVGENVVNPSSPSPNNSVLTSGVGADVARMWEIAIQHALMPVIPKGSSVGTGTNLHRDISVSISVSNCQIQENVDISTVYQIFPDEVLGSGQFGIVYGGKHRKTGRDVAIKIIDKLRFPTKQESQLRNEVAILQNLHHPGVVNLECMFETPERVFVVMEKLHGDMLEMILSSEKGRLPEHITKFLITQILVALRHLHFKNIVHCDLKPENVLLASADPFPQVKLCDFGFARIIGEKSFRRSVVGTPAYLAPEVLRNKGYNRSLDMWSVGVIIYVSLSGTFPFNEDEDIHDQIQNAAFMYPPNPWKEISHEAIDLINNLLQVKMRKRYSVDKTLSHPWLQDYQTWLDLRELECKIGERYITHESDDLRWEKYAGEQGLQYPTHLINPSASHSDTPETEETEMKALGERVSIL
RGS16-Gao HTS: modulates binding between human RGS16 and Galphao | O15492+P09471 | bead-based flow cytometry RGS16-Galphao binding, fluorescence; actives lie on both sides | binding response (% of control), % at 10 µM | 220,000 tested, 0.38% active;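 active = below 25% or above 175%, edge rows of some plates excepted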;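 also: Galphao activated by GDP with aluminum fluoride before binding; 100% = wells without compound and 0% = beads without RGS; some results beyond the cut were filed as inactive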
Insulin prom inh cell count: also measured in Insulin prom inh; calls as there; normalized cell count, %; measured here: cell count, toxicity; reference of the scale not given here;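 cells exposed to compound for 48 h; stained nuclei by imaging scaled within each plate; lower means fewer cells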
HSV replic up primary fold: also measured in HSV replic up; calls as there; fold increase; compound at 10 µM; measured here: primary screen fold increase 10 uM; tested in PC3 cells;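 GFP signal in the first replicate; 1 = infected wells without compound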
* = called active by the depositor; i = inactive; u = inconclusive; x = no result given. The order is random; overall some 1.3% were active at least once.

Compound,GALR2 ag,Insulin prom inh,Insulin prom inh cell count,HSV replic up,HSV replic up primary fold,PKD1 inh,RGS16-Gao HTS
CCCS(=O)(=O)N1CCC(C(=O)NCc2cccnc2)CC1,-4.6,x,x,i,0.94,-8.2,103.5
COc1nc(N)c(S(=O)(=O)c2ccc(C)cc2)cc1C#N,-1.1,-196.9,99.0,i,0.95,-4.4,46.1
Cc1nnc(SCC(=O)N(C(C)C)C(C)C)[nH]c1=O,x,x,x,i,1.1,7.2,104.4
Cc1sc(NC(=O)CSc2nnnn2C2CCCCC2)c(C#N)c1C,-3.4,-23.3,81.0,x,x,1.6,101.0
NC(=S)N/N=C/c1cc([N+](=O)[O-])ccc1OCCOc1ccccc1,-2.2,10.7,103.1,i,0.86,-0.8,97.3
O=C(C1CCC(=O)N1Cc1cccs1)N1CCOCC1 (stereo not given),x,-34.9,133.5,i,1.03,1.6,105.1
CC(C)C(NC(=O)CN(c1cccc(F)c1)S(C)(=O)=O)C(C)C,-1.1,-100.0,79.2,i,0.98,0.3,98.1
CN1CCN(c2ccc(CNS(=O)(=O)c3ccc(Cl)cc3)cc2)CC1,x,x,x,i,1.08,x,105.4

An excerpt from above with just PKD1 inh and HSV replic up:
Structure	PKD1 inh	HSV replic up
COc1nc(N)c(S(=O)(=O)c2ccc(C)cc2)cc1C#N	-4.4	i
Cc1nnc(SCC(=O)N(C(C)C)C(C)C)[nH]c1=O	7.2	i

Next records
Compound,GALR2 ag,Insulin prom inh,Insulin prom inh cell count,HSV replic up,HSV replic up primary fold,PKD1 inh,RGS16-Gao HTS
Cc1ccccc1[C@@H]1C(C#N)=C(N)S[C@H]1C(=O)c1ccccc1,-1.6,15.2,122.8,i,0.96,-5.2,98.4
CC1CCCCC1n1c(=S)[nH]c2ccccc2c1=O (stereo not given),-2.5,x,x,i,0.76,-3.1,98.0
COc1ccc(/C=C/C(=O)Nc2ccc(NC(C)=O)cc2)cc1S(=O)(=O)N1CCOCC1,x,x,x,i,0.9,x,96.2
O=c1c(-c2ccccc2)c[nH]n1-c1cccc([N+](=O)[O-])c1,x,25.0,39.5,i,0.96,-5.3,106.9
O=C(NC(=S)Nc1cccc2ncccc12)c1ccccc1,x,x,x,i,0.92,1.3,100.6
CSc1ccccc1NC(=O)Nc1cccc(Cl)c1,-0.1,12.7,80.5,i,0.96,2.1,98.8
CCCN1C(=O)SC(CC(=O)Nc2ccc(Br)cc2)C1=O (stereo not given),1.0,27.0,67.6,i,1.13,-3.1,99.4
CCS(=O)(=O)c1ccc2oc(SCC(=O)NC3CCCC(C)C3C)nc2c1 (stereo not given),-0.5,-92.9,126.9,i,0.95,-2.5,101.8
O=C(O)c1ccccc1C(=O)Nc1ccc(Oc2ccccc2)cc1,x,x,x,i,0.99,x,98.3
CN1C(=O)NC(NC(=O)c2ccncc2)(C(F)(F)F)C1=O (stereo not given),-1.8,x,x,i,0.85,-3.6,102.5
O=C(NCCc1ccccc1)N1CCCC(CNS(=O)(=O)Cc2ccccc2)C1 (stereo not given),x,x,x,i,0.94,4.9,102.7
O=C1NCCN1C(=O)c1ccccc1F,-2.8,x,x,i,1.03,-1.8,101.4
C=CCc1cccc(/C=C/c2cc(=O)c3ccccc3[nH]2)c1O,-1.5,8.8,88.0,u,x,8.2,114.6
CC(C)[C@H](NC(=O)[C@H](CCCN=C(N)N)NC(=O)NC(Cc1ccccc1)C(=O)O)C(=O)NC(C=O)CCCN=C(N)N (stereo not given in full),1.0,40.9,118.4,i,0.92,-9.7,105.9
CCN(CC(=O)Nc1ccc(C(C)=O)cc1)CC(=O)Nc1cccc(OC)c1,x,-23.8,141.5,i,0.94,-7.2,111.4
CCn1c(Cc2ccccc2)nnc1SCC(=O)Nc1ccc(C)cc1,-1.4,-247.1,87.7,i,0.7,-1.1,107.6
CCCCOC(=O)CSCC(=O)Nc1cc(C)on1,0.2,33.3,185.1,i,0.92,3.5,98.5
CCOC(=O)c1cc(-c2ccc(Cl)s2)nc2c1c(C)nn2C,-1.4,-31.2,51.9,i,0.94,-2.8,102.2
Cc1csc(OCC(=O)Nc2ccc(C)c(C)c2)n1,-3.1,23.3,150.8,i,0.82,-3.0,81.7
Cc1ccccc1OCC(=O)OCC(=O)c1ccc(-c2ccccc2)cc1,-0.5,x,x,i,1.02,-1.2,104.3
CCc1ccc(/C=N/NC(=O)C(=O)NCCCN2CCOCC2)cc1,-1.3,-32.0,97.0,i,1.01,-7.3,102.8
O=[N+]([O-])c1ccc(/C=N/Nc2nc(N3CCCCCC3)nc(N3CCCCCC3)n2)o1,-1.1,-6.2,123.0,x,x,-13.8,99.2
CCc1nn(C(C)C(=O)NC(C)CCc2ccco2)c(=O)c2cc3occc3n12 (stereo not given),0.9,19.2,61.3,i,1.01,-3.2,100.0
Cc1ccc(NC(=O)CN2CCN(S(=O)(=O)c3cccs3)CC2)cc1S(=O)(=O)N(C)C,x,0.0,137.8,i,0.9,-2.4,91.5
O=C1N(CC(=O)N2CCc3ccccc32)CCN1Cc1ccccc1Cl,-2.8,25.7,77.3,i,1.03,3.1,95.8
CN(C(=O)c1ccccc1)c1ccc(OCC(=O)NC2CCS(=O)(=O)C2)cc1 (stereo not given),-1.8,x,x,i,1.09,-13.3,99.4
Cc1ccc(NC(=O)C2CC(=O)N/C(=N/N=C/c3ccco3)S2)cc1C (stereo not given),0.1,x,x,i,1.07,-4.2,106.9
CSc1nnc(C)c(/C=C/Nc2ccc(F)cc2)n1,0.1,-30.0,78.4,i,1.01,-6.8,98.2
CCN(CC)CC(=O)N1N=C(c2cccs2)CC1c1ccco1 (stereo not given),-2.0,-18.3,71.4,i,0.93,-4.2,114.7
CCCCn1c(SCC(=O)c2ccccc2)nc2c1c(=O)[nH]c(=O)n2C,-2.0,43.8,80.5,i,0.98,-5.0,107.8
CCC(C)N(C(=O)COc1ccc(NC(C)=O)cc1)C1CCS(=O)(=O)C1 (stereo not given),x,x,x,i,1.08,-5.0,105.7
COc1ccc(-c2csc(N(CCCN3CCOCC3)C(=O)c3ccco3)n2)cc1,-1.0,x,x,i,0.99,-6.7,99.1

Entries of single compounds from above. Order of values: GALR2 ag | Insulin prom inh | Insulin prom inh cell count | HSV replic up | HSV replic up primary fold | PKD1 inh | RGS16-Gao HTS
Cc1ccc(NC(=O)C2CC(=O)N/C(=N/N=C/c3ccco3)S2)cc1C (stereo not given) in the list: 0.1 | x | x | i | 1.07 | -4.2 | 106.9
CN(C(=O)c1ccccc1)c1ccc(OCC(=O)NC2CCS(=O)(=O)C2)cc1 (stereo not given) in the list: -1.8 | x | x | i | 1.09 | -13.3 | 99.4

Next part
Compound,GALR2 ag,Insulin prom inh,Insulin prom inh cell count,HSV replic up,HSV replic up primary fold,PKD1 inh,RGS16-Gao HTS
CCn1c(SCC(=O)N2CCCC2)nc2ccccc2c1=O,-0.7,x,x,i,0.88,-9.8,98.6
COc1ccc(S(=O)(=O)Nc2ccccn2)c(C)c1C,-3.4,-51.6,147.2,i,0.977,-3.0,99.7
O=C(Nc1nc(-c2ccccc2)cs1)C1COc2ccccc2O1 (stereo not given),-2.0,-25.0,201.3,i,0.85,-3.0,96.0
COc1ccc(N2CSC3=C(C#N)C(c4cccc(OC)c4OC)CC(=O)N3C2)cc1 (stereo not given),-0.7,x,x,i,0.96,-7.4,89.6
Cc1nc(C)n(CC(O)COc2ccc(C(=O)c3ccccc3)cc2)n1 (stereo not given),-1.6,-109.6,135.5,i,0.9,-7.1,101.3
COc1cc(C(=S)N2CCCCC2)ccc1OCC(=O)Nc1ccccc1Cl,x,-47.1,107.5,i,0.79,5.0,103.3
CCOC(=O)c1c(/N=C/c2cccc(C)c2O)sc2c1CCN(C)C2,-0.2,x,x,i,0.83,0.3,109.9
CCOc1ccc2nc(NS(=O)(=O)c3ccc(NC(C)=O)cc3)sc2c1,-0.7,x,x,i,0.83,-3.9,108.4
O=S(=O)(/N=C(\Nc1ccc(F)cc1)C(F)(F)F)c1ccccc1,-0.5,x,x,i,0.95,-4.1,88.8
Cc1ccc(C2=NN(CC(=O)NCc3cccs3)C(=O)CC2)cc1,x,9.1,168.6,i,0.9,0.2,116.7
CCC/C(O)=C1\C(=O)CC(c2ccccc2)CC1=NCCc1c(C)[nH]c2ccccc12 (stereo not given),0.6,-70.7,67.2,i,0.85,0.1,118.5
CC(C)(C)OC(=O)c1c(N)n(CCCN2CCCC2=O)c2nc3ccccc3nc12,3.8,-48.5,135.0,x,x,-2.1,102.1
Cc1cc(=O)[nH]c(SCc2cccc(Br)c2)n1,-1.8,62.5,129.1,i,0.77,0.5,103.3
Cc1cc(=O)oc(C)c1C(=O)NCCC1=CCCCC1,1.4,-11.6,97.7,i,0.99,-8.0,44.6
O=C(NC1CCC(NC(=O)C2CCCO2)CC1)C1CCCO1 (stereo not given),-2.4,-148.3,66.5,i,0.89,-12.3,102.1
Cc1sc2nc(SCC(=O)NCc3ccco3)n(Cc3ccccc3)c(=O)c2c1C,0.2,26.7,110.8,i,1.01,-5.2,100.9

The list continues:
Molecule | GALR2 ag | Insulin prom inh | Insulin prom inh cell count | HSV replic up | HSV replic up primary fold | PKD1 inh | RGS16-Gao HTS
COc1ccc(N2CC(C(=O)Nc3ccccc3C(=O)NCc3ccco3)CC2=O)cc1 (stereo not given) | 0.2 | 54.5 | 73.9 | i | 0.83 | -8.0 | 99.3
c1ccc(-n2nnnc2Oc2ccc(-c3nnco3)cc2)cc1 | -1.4 | -22.2 | 85.8 | i | 0.8 | 0.7 | 101.9
COc1ccccc1OCCC(=O)OCC(=O)Nc1ncc(Cl)cc1Cl | -1.6 | x | x | i | 0.99 | -5.9 | 101.2
Cc1ccccc1C(=O)NC(=S)NCC1CCCO1 (stereo not given) | -3.1 | x | x | i | 0.98 | 3.9 | 99.8
CCN(CC)C(=O)/C(=C/c1cn(S(=O)(=O)N(C)C)c2ccccc12)NC(=O)c1ccc(OC)cc1 | x | x | x | i | 0.95 | 10.2 | 104.5
COC(=O)[C@H]1C[C@@H]1[C@H](NC(=O)c1cnccn1)c1ccccc1 | -0.8 | 0.0 | 54.0 | i | 1.15 | -10.3 | 101.2
O=C(Nc1nnc(SCC(=O)N2CCCc3ccccc32)s1)c1ccccc1 | -0.2 | x | x | i | 1.12 | -2.3 | 96.7
CC(OC(=O)CCc1nc2ccccc2c(=O)[nH]1)C(=O)Nc1ccc2c(c1)OCO2 (stereo not given) | x | x | x | i | 1.01 | x | 103.6
COCC(=O)N1CCN(c2cccc(C(F)(F)F)c2)CC1 | x | x | x | i | 1 | -1.2 | 102.9
O=S(=O)(NCCOCC(F)(F)F)c1ccc2oc3ccccc3c2c1 | -2.5 | -28.6 | 117.7 | i | 0.957 | -5.1 | 107.9
COc1cc2nc(Cl)nc(N3CCN(C)CC3)c2cc1OC | x | x | x | i | 0.83 | -4.5 | 94.1
C=CCn1c(COc2ccc(F)cc2)nnc1SCC(=O)c1c[nH]c2c(CC)cccc12 | -0.7 | 20.6 | 122.2 | i | 0.97 | -3.5 | 87.9
CCCC(=O)NC(NC1CCS(=O)(=O)C1)C(Cl)(Cl)Cl (stereo not given) | x | -6.7 | 163.5 | i | 0.91 | -8.4 | 14.7*
CN(C)/C=N/c1nc2nccc(-c3cccc(Cl)c3)n2n1 | x | 0.0 | 118.9 | i | 0.88 | -4.3 | 96.5
Cc1noc(C)c1S(=O)(=O)N1CCCC(C(=O)NCC2CCCO2)C1 (stereo not given) | -0.5 | x | x | i | 0.91 | 6.0 | 94.7
CCCCNc1nnc(SCC(=O)N2CCN(S(=O)(=O)c3ccc4ccccc4c3)CC2)s1 | -0.7 | x | x | i | 0.84 | -2.5 | 92.3
O=C(CN1C(=O)CCC1=O)Nc1nc(-c2ccc(Oc3ccccc3)cc2)cs1 | 0.0 | x | x | i | 1.03 | 1.1 | 99.3
CC(=O)c1nn(-c2cccc(Cl)c2)cc1C(=O)c1ccco1 | -2.3 | 31.2 | 45.9 | i | 1.04 | -8.6 | 100.9
COCC(C)NC(=O)COc1ccc(Cl)cc1Cl (stereo not given) | 10.4 | -12.9 | 85.3 | i | 0.92 | -0.2 | 101.3
Cc1ccc(CSc2nc3c(c(=O)[nH]2)C(c2ccncc2)C2=C(CCCC2=O)N3)cc1 (stereo not given) | -1.0 | -35.7 | 91.3 | i | 0.9 | 5.1 | 96.8

Screens: PubChem, several laboratories
